Source: PubChem (National Center for Advancing Translational Sciences (NCATS))
VDR inh – Inhibitors of the vitamin D receptor (VDR): qHTS. VDR-SRC2-3 peptide fluorescence polarization, 2 h. Potency, µM, without a hit: max response, negative = inhibition, hits mostly inhibitors. 400,000 tested, 0.93% active. AID 504847, 2011; active = well fitted inhibition curve with a large enough effect; inconclusive = small, poorly fitted or top-dose-only effect, or another doubt; inactive = no such curve, though single readings can be large or run the other way; note: series mostly up to about 120 µM
Target sequence (P11473 whole entry, looked up): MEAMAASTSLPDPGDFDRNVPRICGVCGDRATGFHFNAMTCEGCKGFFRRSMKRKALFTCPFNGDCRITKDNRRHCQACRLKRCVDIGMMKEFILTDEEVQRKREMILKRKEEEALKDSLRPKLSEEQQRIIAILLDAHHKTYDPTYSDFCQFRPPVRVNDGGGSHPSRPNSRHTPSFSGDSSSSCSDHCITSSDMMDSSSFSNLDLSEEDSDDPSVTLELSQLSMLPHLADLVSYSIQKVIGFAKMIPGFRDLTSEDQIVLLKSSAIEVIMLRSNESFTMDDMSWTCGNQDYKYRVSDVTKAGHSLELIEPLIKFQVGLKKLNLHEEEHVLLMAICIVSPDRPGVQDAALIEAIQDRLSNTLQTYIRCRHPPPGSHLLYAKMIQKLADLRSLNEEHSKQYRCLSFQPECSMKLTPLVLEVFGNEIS
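Fluorescence polarization assay measuring small-molecule disruption of VDR binding to the coregulator peptide SRC2-3. Compounds were pin-transferred (23 nl) into the reagent mix and incubated 2 h at room temperature before reading.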
Starred values were filed as active, the others as inactive; ? = inconclusive; & = joins results of further samples. % is set by controls: 0 for no effect and ±100 for the full control effect; potency is the fitted concentration of half-maximal effect. Some of the compounds tested. The share of hits here may be higher or lower than overall.

The opening 2 entries as a preview:
SMILES	VDR inh
COc1cc(C(=O)NCCC(=O)N2CCC3(CC2)NCCc2[nH]cnc23)cc(OC)c1OC	-11%
COc1ccc(-c2nc3ccccc3o2)cc1NC(=O)c1ccc(OCC(C)C)cc1	-2%

The list itself, previewed entries included:
SMILES	VDR inh
COc1cc(C(=O)NCCC(=O)N2CCC3(CC2)NCCc2[nH]cnc23)cc(OC)c1OC	-11%
COc1ccc(-c2nc3ccccc3o2)cc1NC(=O)c1ccc(OCC(C)C)cc1	-2%
CCOc1ccc(NC(=O)N2CCC(n3c(=O)[nH]c4ccccc43)CC2)cc1	0%
CC(=O)N1CCc2ccccc2C1CC(=O)O (centres undefined)	17%
C=C1[C@H]2O[C@H]2[C@@H](OC(C)=O)[C@@]2(C)[C@@H](OC(C)=O)C[C@@H](OC(C)=O)[C@@](C)(O)[C@@H]2[C@@H](OC(C)=O)[C@@]2(O)[C@@H](C)C(=O)O[C@H]2[C@H]1Cl	-14%
COCc1nnc(NC(=O)CCSc2ccccc2)s1	7%
C/C(=N\Nc1ccc([N+](=O)[O-])cc1)c1ccc(N)cc1	-1%
CC(C)CNS(=O)(=O)c1ccc(S(=O)(=O)N2CCCN(Cc3ccccc3)C2)cc1	7%
CNc1nc(SCC(=O)OC)nc(N2CCOCC2)n1	-22%
Cn1c(SCCOc2ccccc2Cl)nnc1-c1ccncc1	8%
COc1ccc(-n2ncc3c2CC(C)(C)CC3NC(=O)c2ocnc2C)cc1 (centres undefined)	-17%
CCOC(=O)C1C(C(=O)OC)=C(C(=O)OC)c2ccccc2N1S(=O)(=O)C(F)(F)F (centres undefined)	-21%&0%
COC(=O)N/N=C(\C)c1ccc(OC(F)F)cc1OC(F)F	0%
COCc1cc(=O)n2[nH]c(-c3cccc(Br)c3)cc2n1	-8%
COCC(=O)N1CCC(Oc2ccc(C(=O)NC3CCOC(C)(C)C3)cc2)CC1 (centres undefined)	-17%
Cc1ccc(-n2ncc3c(NCCCN4CCCC4=O)ncnc32)c(C)c1	-11%
Cn1cnnc1SCC(=O)Nc1sc2c(c1C(N)=O)CCC2	-9%
CCN(C[C@H]1N[C@@](CC)(C(=O)OC)[C@H]2C(=O)N(Cc3ccccc3)C(=O)[C@@H]12)C(C)=O	2%
O=C(c1ccccc1NS(=O)(=O)c1cccc([N+](=O)[O-])c1)N1CCCC1	-21%
FC(F)(F)c1cc(-c2ccco2)nc(NCc2ccco2)n1	-22%

7 records picked at random from those above, as already listed:
SMILES	VDR inh
CCOC(=O)C1C(C(=O)OC)=C(C(=O)OC)c2ccccc2N1S(=O)(=O)C(F)(F)F (centres undefined)	-21%&0%
COCc1cc(=O)n2[nH]c(-c3cccc(Br)c3)cc2n1	-8%
CC(C)CNS(=O)(=O)c1ccc(S(=O)(=O)N2CCCN(Cc3ccccc3)C2)cc1	7%
Cn1c(SCCOc2ccccc2Cl)nnc1-c1ccncc1	8%
COCc1nnc(NC(=O)CCSc2ccccc2)s1	7%
C=C1[C@H]2O[C@H]2[C@@H](OC(C)=O)[C@@]2(C)[C@@H](OC(C)=O)C[C@@H](OC(C)=O)[C@@](C)(O)[C@@H]2[C@@H](OC(C)=O)[C@@]2(O)[C@@H](C)C(=O)O[C@H]2[C@H]1Cl	-14%
CC(=O)N1CCc2ccccc2C1CC(=O)O (centres undefined)	17%

Next entries follow.
SMILES	VDR inh
COc1cccc(-c2nnc(SCCC(=O)O)n2C)c1	-2%
C[C@H](CO)N1C[C@H](C)[C@@H](CN(C)Cc2ccncc2)Oc2c(NC(=O)C3CCCCC3)cccc2C1=O	-7%
Cc1ccc(OCCCC(=O)Nc2ccc(S(=O)(=O)N3CCOCC3)cc2)cc1	-30%
COc1ccc(-c2nnc(SCC(=O)NCC3CCCO3)o2)cc1 (centres undefined)	0%
O=C(NCCc1ccccc1)C1CCCN(S(=O)(=O)c2cccc3nonc23)C1 (centres undefined)	4%
N#Cc1nc(-c2ccc(OCc3ccc(Cl)cc3)cc2)oc1N1CCCCC1	-16%
CSc1n[nH]c(NC2=CC(=O)CCC2)n1	-4%
Cc1cc(C(F)F)n2ncc(C(=O)N3CCc4ccccc4C3)c2n1	3%
CC(=O)N1c2c(cc(Br)cc2S(=O)(=O)NCc2ccc3c(c2)OCO3)CC1C (centres undefined)	2%
CCOc1ccccc1CNC(=O)c1cc2n(n1)CCCN(Cc1ccc(C)cc1)C2=O	3%
Cc1ccc(S(=O)(=O)CCc2ccccn2)cc1	6%
COc1ccccc1C(=O)Nc1ccc2c(C)cc(=O)oc2c1	-16%
O=C(Nc1nnc(Cc2ccc(Cl)cc2)s1)c1ccco1	8%
COc1ccc([N+](=O)[O-])cc1NC(=O)c1cn(-c2ccc(C)c(C)c2)c(=O)c2ccccc12	-12%
CC1(c2nnc(-c3cccc(Cl)c3)o2)CC(c2cccc(F)c2)=NO1 (centres undefined)	-13%
O=C(Nc1nccs1)c1ccc(Cl)cc1[N+](=O)[O-]	-13%
CCOc1c(S(=O)(=O)N2CCCC2)ccc(Cl)c1Cl	-4%
COc1ccc(OC)c(NC(=O)CCNC(=O)Cn2cnc3ccccc3c2=O)c1	-7%&4%
O=C(NC1CC1)c1cc2c(s1)CS(=O)(=O)C2	-3%
Cc1cc(C)nc(N/N=C/c2ccc([N+](=O)[O-])o2)n1	9%
CS(=O)(=O)Nc1ccccc1C(=O)NCCSc1ccc(Cl)cc1	13%
Nc1cccc(C(=O)Nc2cccc3ncccc23)c1	-4%
O=C(O)/C=C/c1ccc2ccccc2n1	-10%
O=c1cc(CSc2nnc(COc3ccc(Cl)cc3)o2)c2ccccc2[nH]1	2%
N#Cc1ccsc1NC(=O)c1cccc([N+](=O)[O-])c1	-11%
CCN(C(=O)Cn1nnc(-c2ccccc2)n1)C1CCS(=O)(=O)C1 (centres undefined)	6%
Cc1ccc(-n2c(O)cnc2Nc2nc(C)cc(C)n2)cc1	5%
CCOc1ccc(S(=O)(=O)N2CCCC(C(=O)NCc3cccnc3)C2)cc1C (centres undefined)	-11%
Cc1ccc(NC(=S)N(CCCN2CCOCC2)Cc2cccnc2)cc1C	-2%
O=C(Nc1nc(-c2cccs2)cs1)C1=COCCO1	?
Cc1ccc(-c2noc(C3CC(=O)N(c4ccc5c(c4)OCCO5)C3)n2)cc1 (centres undefined)	12%
CCOC(=O)c1c(C)[nH]c(C(=O)COC(=O)c2cccnc2Cl)c1C	7%
COc1ccc(-n2ncc3c(=O)n(CC(=O)N4c5ccccc5CC4C)cnc32)cc1 (centres undefined)	2%
CCN1C(=O)c2cccc3c(S(=O)(=O)N(C(=O)c4ccncc4)c4ccc(OC)cc4)ccc1c23	-9%
Cc1ccc(C)c(NC(=O)COC(=O)c2ccc3c(c2)OCO3)c1	-10%
Cc1cccc(NC(=O)CN(C)S(=O)(=O)c2cccc3cccnc23)c1	-3%
Brc1cc2ccccc2[n+](Cc2ccccc2)c1	-8%
O=S(=O)(N[C@H](CO)c1ccccc1)c1ccc(Br)cc1F	6%
O=C(/C=C/c1ccc(Cl)c([N+](=O)[O-])c1)Nc1ccc(NC(=O)c2ccco2)cc1	-15%
Fc1ccc(-c2cc(-c3cccs3)cc(-c3ccccc3)n2)cc1	-15%
Cc1cccc(N2CC(O)(c3cccs3)[N+]3=C2CCCC3)c1C (centres undefined)	1%
O=C(NCc1ccccn1)c1coc(=O)c(Br)c1	-25%
COC(=O)Nc1ccc(S(=O)(=O)N2CCCC(C(=O)NC3CCCCC3)C2)cc1 (centres undefined)	-2%
CN(C)C(=O)CSc1nnc(-c2cnccn2)n1C	2%
O=C(CCN1C(=O)c2ccc([N+](=O)[O-])cc2C1=O)Nc1ccccc1C(=O)O	-4%
Cc1ccc(C)c(S(=O)(=O)NCC(=O)N2CCCC2)c1	-16%
Cc1cccc(NC(=O)CN2CCN(C(=O)c3oc4c(Cl)cccc4c3C)CC2)c1C	5%
CCOC(=O)N1CCN(Cc2nc(N)nc(Nc3ccc(C)cc3)n2)CC1	-5%
CC(NC(=O)C1CCN(C(=O)Nc2ccccc2)CC1)c1ccccc1 (centres undefined)	10%
C[C@@H](OC(=O)c1[nH]cnc1C(=O)N1CCN(C(=O)OC(C)(C)C)CC1)c1ccccc1	-4%
COC(=O)C1=C(C(=O)OC)C(c2ccc(OC)c(OC)c2)c2sc(=O)[nH]c2S1 (centres undefined)	79µM*
CCN1C(=O)[C@H]2[C@H]3CN=C(SCc4ccccc4)N3[C@@](C)(C(=O)OC)[C@H]2C1=O	17%
CCN(CC(=O)Nc1cccc(OC)c1)CC(=O)Nc1ccccc1C	3%
Cc1ccccc1Nc1c(-c2ccc(Br)cc2O)nc2sccn12	1%
CCOC(=O)/C=C/c1nc(C(=O)OCC)c(C)c(=O)[nH]1	7%
COc1cc(C(=O)NC2CC(C)(C)Cc3c2cnn3-c2ccccc2)cc(OC)c1OC (centres undefined)	?
O=C1c2ccccc2C(=O)N1/N=C/c1ccc(O)c(O)c1	-2%
O=C1NC2(CCCCC2)C(=O)N1CCN1C(=O)c2ccccc2C1=O	-3%
Cc1oc2cc3oc(=O)c(CCC(=O)N[C@H](C(=O)O)C(C)C)c(C)c3cc2c1C	-2%
CC[C@H](C)[C@H](NC(=O)[C@H](Cc1ccc(O)cc1)NC(=O)[C@@H](NC(=O)[C@H](CCCN=C(N)N)NC(=O)[C@@H](N)CC(=O)O)C(C)C)C(=O)N[C@@H](Cc1cnc[nH]1)C(=O)N1CCC[C@H]1C(=O)N[C@@H](Cc1ccccc1)C(=O)N[C@@H](Cc1cnc[nH]1)C(=O)N[C@@H](CC(C)C)C(=O)O	-4%
(further entries)
SMILES	VDR inh
COc1cc2c(cc1NS(=O)(=O)N1CCCCC1)oc1ccccc12	13%
Cc1cc(C(=O)CSc2nnc(-c3cccnc3)n2-c2ccccc2F)c(C)n1CC1CCCO1 (centres undefined)	3%
O=C(Cn1cc(S(=O)(=O)Cc2ccccc2)c2ccccc21)N1CCOCC1	-11%
O=C(CN1C(=O)NC2(CCCCCCC2)C1=O)Nc1ccc(Br)cc1Br	10%
O=C(NCC1CCN(Cc2ccccc2F)CC1)C1CCCN(c2ncnc3c2nc2n3CCCCC2)C1 (centres undefined)	-24%
CC(=O)n1ccnc1	-6%
COCCSc1ccccc1C(=O)Nc1ccncc1	-8%
Cc1cc2c(c(=O)n1CCc1ccccc1)C(C(C)C)C(C#N)=C(N)O2 (centres undefined)	7%
Cc1cccc(-c2nnc3n2N=C(c2ccccc2)CS3)c1	7%
COc1ccc(S(=O)(=O)N2CCc3ccccc32)cc1C(=O)NCCc1ccccn1	1%
CC(=O)Nc1ccc(NC2=C(Cl)C(=O)c3ccccc3C2=O)cc1	-2%
CCOC(=O)c1cnn(-c2ccccc2)c1-n1cccc1C(=O)C(=O)Nc1ccc(F)cc1	14%
COc1ccc(C(=O)NN2C(=O)C3CCC(C)(C2=O)C3(C)C)cc1 (centres undefined)	-11%
CCn1c(CCc2nc3ccccc3[nH]2)n[nH]c1=S	-8%
CCOCC(=O)Nc1cc(-c2cn3cccnc3n2)ccc1C	11%
O=C(O)Cc1csc(NC(=O)CSc2cccc(C(=O)O)n2)n1	9%
Cc1cc(C(=O)CSc2n[nH]c(N)n2)c(C)n1-c1ccc(F)cc1	-5%
C(=C\c1ccc2ccccc2n1)/c1ccccc1	-1%
Cc1noc(/C=C/N(C)C)c1S(=O)(=O)N1CCN(c2ccccc2)CC1	-7%
S=c1nc(-c2ccccc2)[nH]c2ccc(Br)cc12	-3%
Cc1ccccc1N=C1NC(=O)/C(=C/c2cccn2C)S1	-15%
Cc1ccc(CNC(=O)c2ccc(Cn3nc(C)cc3C)o2)cc1	3%
CCN1C(=O)[C@H]2[C@@H](c3ccc(SC4CCCCC4)c(OC)c3)N3CCCC[C@@]3(C(=O)OC)[C@H]2C1=O	-3%
COc1cc2ncnc(NCc3ccccc3)c2cc1OC	-8%
CCn1c(-c2cc(-c3ccc(OC(C)C)cc3)nc3ccccc23)n[nH]c1=S	8%
Nc1ncc2c(n1)-c1cc(Cl)ccc1SC2	-13%
Cc1nnc(SCC(=O)Nc2ccc3c(c2)OCO3)n(N)c1=O	-3%
COc1ccc2cc(OCC(=O)NNC(=O)Nc3ccc(F)cc3)ccc2c1	8%
Cc1cccc(Cn2c(C(C)O)nc3ccccc32)c1 (centres undefined)	3%
C=C(C)C(=O)Nc1cccc(C2=NOC3(C2)C[C@H](C(N)=O)N(C(=O)COc2ccc(Cl)cc2)C3)c1 (some centres undefined)	-9%
CN(Cc1ccccc1)C(=O)CN1C(=O)COc2ccc(S(=O)(=O)N3CCCC3)cc21	-16%
COc1cc(/C=C\C(=O)NCc2ccc3c(c2)cc(C)n3C)cc(OC)c1OC	-21%
CC(C)NC(=O)N1CCC2(CC1)CCN(C(=O)c1ccncc1)CC2	5%
Cc1cccc(CN2CCSc3sccc3C2=O)c1	-25%
CCCCOc1cccc(OCC(=O)Nc2nc3ccccc3[nH]2)c1	-3%
CCCc1cc(=O)n2[nH]c(-c3ccc(Br)cc3)cc2n1	4%
O=C(CN1CCN(S(=O)(=O)c2ccccc2)CC1)Nc1cccc(C(F)(F)F)c1	-19%
Cc1ccccc1OC(=O)n1c(=S)oc2cc(Cl)ccc21	-9%
CCN(CC)C(=O)CSc1nc(COc2ccccc2)nc2ccccc12	-1%
O=C(Nc1cc(=O)c2ccccc2o1)N1CCOCC1	-10%
Cc1cccc(-n2ncc3c(=O)[nH]c(SCC(=O)N4CC(=O)Nc5ccccc54)nc32)c1	2%
Cc1nc(NCc2ccco2)c2c3c(sc2n1)CCC3	7%
CCOC(=O)C1CCCN(S(=O)(=O)c2ccc(OC)c3ccccc23)C1 (centres undefined)	-9%
O=C(CCl)NCCCCCCCCCNC(=O)CCl	-11%
CCN(CC)S(=O)(=O)c1ccc(NC(=O)CCc2c(C)nc3cc(-c4ccc(Cl)cc4)nn3c2C)cc1	-9%
CCCCn1c(=O)[nH]c(=O)c2c1nc(-c1ccc(-c3ccccc3Br)o1)n2CC	-10%
